Assay outcomes as filed in PubChem BioAssay.
NPYLR7 ag: mosquito NPYLR7 agonism; AID 1259423; hit rate 0.15% among 270,000; HEK293T NPYLR7/Galpha15, GCaMP6s calcium fluorescence; activation, % at 10 µM; in the data active = activation above about 40%;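 also: 0% = vehicle and 100% = reference agonist at the receptor; some compounds past the cut are filed as inactive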
NPYLR7 ag max-min: second read-out of NPYLR7 ag, no call of its own (marks repeat the call); activation, %; measured here: Max-Min RFU normalised activation; some inactives read as strong as hits;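 span of the calcium signal over five minutes; 0% = vehicle and 100% = native peptide agonist; compound fluorescence can raise it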
The depositor's hits bear a star. An excerpt. The share of hits here may be higher or lower than overall.

Structure | NPYLR7 ag | NPYLR7 ag max-min
CCOc1ccc(-c2cc3c(=O)n(CC(=O)NCCc4ccc(OC)c(OC)c4)ccn3n2)cc1 | 2 | 1
COc1ccc2nc(-c3ccc(NS(=O)(=O)c4ccc(C)cc4)cc3)cn2n1 | -13 | -17
Cc1ccc(-n2c(=O)c3ccccc3n(C(C)C(=O)NCc3ccccn3)c2=O)cc1Cl (configuration not stated) | 27 | 26
Cc1nc(-n2nc(-c3ccco3)cc2NC(=O)c2ccc(C(F)(F)F)cc2)[nH]c(=O)c1C | 1 | -2
CCOC(=O)c1c(S(=O)(=O)N(Cc2cccs2)C2CC2)n[nH]c1C | 10 | 8
c1ccc(OCCN2CCN(c3ncnc4scc(-c5ccccc5)c34)CC2)cc1 | 1 | -1
Cc1nn(C(F)F)c(C)c1C(=O)O | 1 | 3
COc1ccc(-c2ccc(NC(=O)CN)c(F)c2)cc1Cl | 0 | 10
COc1ccc2cc(Br)ccc2c1CC(=O)O | 0 | -2
CN1CCCCC1CN1CCN(c2ccncc2Cl)CC1 (configuration not stated) | 3 | 1
Cn1cc(NC(=O)c2cccc(CN3CCC3c3ccc(F)cc3)c2)cn1 (configuration not stated) | 2 | 0
Cc1nsc(NC(=O)NCC(c2ccccc2)c2ccccc2)n1 | 9 | 9
Cn1c(=O)c2c(nc(SCC(=O)OCc3ccccc3)n2Cc2ccccc2Cl)n(C)c1=O | 15 | 9
OC(Cc1ccccc1)C1CCN(c2nncc(-c3ccccc3)n2)CC1 (configuration not stated) | -6 | -7
Cc1cccc(Cn2cccc2CN(Cc2ccccc2C#N)CC2CCCCC2)c1 | -11 | -10
CSc1ccc(C(=O)Nc2ccc3[nH]ncc3c2)c(-c2cccc(F)c2)c1 | -6 | -12
CCOc1ccccc1C(=O)N1CCC(NC(=O)CN(C)C(=O)c2ccco2)CC1 | 1 | -1
Cc1ccccc1CN(CCO)Cc1nc[nH]c1C | -5 | -6
O=C(NCCCn1nnc2ccccc21)c1cn(Cc2cccc3ccccc23)nn1 | -2 | -3
OCc1nc2ccc(Cc3ccc4nc(CO)[nH]c4c3)cc2[nH]1 | -5 | -6
CCn1c(SCc2cc(F)ccc2Br)nnc1-c1c2c(nc3ccccc13)CCC2 | -8 | -11
CN(Cc1cc(=O)n2c3c(sc2n1)CCCC3)C1CCCCC1 | 1 | 1
COc1ccccc1-c1nc(COC(=O)c2nnn(-c3ccc(F)cc3)c2C)c(C)o1 | 2 | -9
O=C(N=Nc1c(O)[nH]c2ccc(Cl)cc12)c1ccccc1O | 1 | 0
CCOC(=O)c1nc2cc(Cl)c(Cl)cc2nc1N1CCN(C(=O)c2ccc3c(c2)OCO3)CC1 | 8 | 0
CCN1CCN(c2ccccc2NC(=O)CCNC(=O)c2cccc(C)c2)CC1 | 3 | 3
Cn1c(C2CCCN(S(C)(=O)=O)C2)nn(CC(=O)NCCc2ccccc2)c1=O (configuration not stated) | -3 | 5
C=CCN(Cc1nccn1Cc1ccc(Cl)cc1Cl)C(=O)c1cccc(OC)c1 | 16 | 14
COc1ccc(C2=NN(C(=O)CN3CCN(c4ccccc4F)CC3)C(c3ccc(C)cc3C)C2)c(OC)c1 (configuration not stated) | 23 | 20
CNC(=O)CCN(C)C(=O)C(O)c1ccc(C(F)(F)F)cc1 (configuration not stated) | 3 | 2
Cc1oc2cc(OC(C)C)c(C(C)C)cc2c(=O)c1-c1ccc2c(c1)OCCO2 | 13 | 12
Brc1ccc(-c2nnn(CCOc3ccccc3)n2)cc1 | 2 | 0
COc1ccc(OC)c(NC(=O)C2(C)CCN2CC(C)C)c1 (configuration not stated) | 2 | -5
FC(F)(F)c1nc(NCCc2c[nH]c3ccccc23)c2ccccc2n1 | 0 | 6
COC(=O)c1ccc(CNC(=O)C2CCC(=O)N(CCc3ccccn3)C2)cc1 (configuration not stated) | 1 | -1
CCCCn1c(=NC(C)=O)c(C(=O)OCC)cc2c(=O)n3cccc(C)c3nc21 | 3 | 2
CCNC(=S)N1CCC(C(NC(=O)c2ccccc2F)C(=O)NC(C)CC)CC1 (configuration not stated) | -3 | -3
Cc1cc(C)n(CCCC(=O)N2CCC3(CN(C)C(=O)O3)C2)n1 (configuration not stated) | 4 | 3
CCN(C(=O)/C=C/c1cnn(C)c1)C12CC3CC(CC(C3)C1)C2 | 15 | 6
COc1ccc(CN(C)S(=O)(=O)NCc2ccccc2)c2cccnc12 | 6 | 4
Clc1ccc(-c2csc3ncnc(Sc4nnnn4C4CC4)c23)cc1 | 4 | 5
Cc1c(C(=O)NCc2ccc3c(c2)OCCO3)sc(=O)n1CCOc1ccc(F)cc1 | -10 | -10
O=C(c1ncncc1Cl)N(Cc1ccc(O)cc1)Cc1ccco1 | 0 | -9
CCOC(=O)COc1nc(C)cc(COC)c1C#N | 3 | -3
CCC(C(=O)N1CCN(c2nc(C(C)C)nc3sc(C)c(C)c23)CC1)c1ccccc1 (configuration not stated) | -13 | -12
COc1ccc(C(O)(c2ccc(OC)cc2)c2ccc(CN(Cc3ccccc3F)C3CC3)o2)cc1 | -8 | -1
CCOC(=O)N1CCN(C(=O)C(C)n2nc(C)n3c(cc4sccc43)c2=O)CC1 (configuration not stated) | 9 | 9
COc1nc(-c2ccc3c(c2)OCO3)n(-c2ccc(NC(=O)C3CCC3)cc2)n1 | 4 | 13
CCn1c(=S)n(CN2Cc3c(OC)ccc(OC)c3C(O)C2)c2ccccc21 (configuration not stated) | 3 | -1
CC(C)C(C)NC(=O)CSc1nnc(NC2CCCCC2)s1 (configuration not stated) | -1 | -5
CCN(CC)C(C(=O)NCC(=O)NC(C)C)c1cc(Cl)cc(Cl)c1 (configuration not stated) | 2 | 0
Cc1cc(OC(=O)c2ccccc2[N+](=O)[O-])c([N+](=O)[O-])c(=O)[nH]1 | -3 | -4
CCCCCCCCC(=O)N(CCOC)CC(=O)Nc1cc(C(C)(C)C)nn1-c1ccc(OC)cc1 | 1 | 4
NC(=O)c1ccc(CN2CCCC2Cc2ccccc2)cc1 (configuration not stated) | 1 | 0
COc1ccc(/C=C\C(=O)Nc2cc(=O)n(C)c(=O)n2C)cc1OC | 10 | 12
CCSCC(C)NCc1cc(-c2ccco2)on1 (configuration not stated) | 6 | 5
COC(=O)CCN(Cc1cccc(F)c1F)C(=O)c1cc(C2CC2)[nH]n1 | 0 | -5
O=C(c1ccc(C(F)(F)F)cc1)N(Cc1ccc(OS(=O)(=O)c2ccc(F)cc2)cc1)Cc1ccco1 | 0 | 2
O=C(O)c1ccc(COc2cccc(Cl)c2)s1 | -1 | -3
Cc1nc2c(=O)n(CC(=O)Nc3ccc(C(N)=O)cc3)nc(-c3ccc(F)cc3)c2s1 | 4 | 2

Next part; the last 7 above are carried over.
Structure | NPYLR7 ag | NPYLR7 ag max-min
NC(=O)c1ccc(CN2CCCC2Cc2ccccc2)cc1 (configuration not stated) | 1 | 0
COc1ccc(/C=C\C(=O)Nc2cc(=O)n(C)c(=O)n2C)cc1OC | 10 | 12
CCSCC(C)NCc1cc(-c2ccco2)on1 (configuration not stated) | 6 | 5
COC(=O)CCN(Cc1cccc(F)c1F)C(=O)c1cc(C2CC2)[nH]n1 | 0 | -5
O=C(c1ccc(C(F)(F)F)cc1)N(Cc1ccc(OS(=O)(=O)c2ccc(F)cc2)cc1)Cc1ccco1 | 0 | 2
O=C(O)c1ccc(COc2cccc(Cl)c2)s1 | -1 | -3
Cc1nc2c(=O)n(CC(=O)Nc3ccc(C(N)=O)cc3)nc(-c3ccc(F)cc3)c2s1 | 4 | 2
Nc1ccc2oc(-c3cc(F)c(F)cc3Cl)nc2c1 | -3 | -5
CC(Oc1cccc(-n2ccnc2-c2ccccn2)c1)C(=O)O (configuration not stated) | -2 | -6
CC1CCCCC12NC(=O)N(CN1CCN(Cc3cc(=O)n4ccsc4n3)CC1)C2=O (configuration not stated) | 7 | 13
COc1ccc(-n2c(Cc3ccccc3)nnc2SCCCC(=O)N2CCN(C(=O)c3ccc(C(F)(F)F)cc3)C(C)C2)cc1 (configuration not stated) | 11 | 14
CCN(CC)c1ccc(NC(=O)N2CCN(C)CC2c2ccccc2)cn1 (configuration not stated) | 8 | 8
COc1cccc(OCC2c3ccsc3CCN2C(=O)CN(C(C)=O)C(C)C)c1 (configuration not stated) | -19 | -17
Cc1cc(S(=O)(=O)N2CCCCC2CCNC(=O)NC2CCCCC2)ccc1F (configuration not stated) | 6 | 2
CC(=O)Nc1ccc(N2C(=O)/C(=C/c3ccc([N+](=O)[O-])cc3)C=C2c2ccccc2)cc1 | -1 | 7
O=C(CCNC(=O)OCC(F)(F)F)NS(=O)(=O)c1cccs1 | -5 | -4
Fc1ccc(Oc2cc(N3CCN(Cc4ccc5c(c4)OCO5)CC3)ncn2)c(Cl)c1 | 10 | 16
N#CC1C(=N)C(C#N)(C#N)C(c2ccccc2F)C2CNCC=C12 (configuration not stated) | 2 | 1
Cc1ncsc1CCOC(=O)CC12CC3CC(CC(C3)C1)C2 | 10 | 3
O=S(=O)(NCc1ncc(-c2ccccc2)o1)N1CCCCCC1 | 4 | 1
COc1cccc(C2c3[nH]c4ccccc4c3CCN2C(=O)c2cc(F)ccc2C(F)(F)F)c1 (configuration not stated) | -1 | -8
CCOc1cccc(C(=O)Nc2cccc(-c3nc4cc(C)c(C)cc4o3)c2)c1 | -8 | -11
CCc1ccc(S(=O)(=O)NCCn2nc(-c3ccco3)ccc2=O)s1 | -2 | -4
COc1cc(COC2CCCN(C(=O)c3cccs3)C2)cc(OC)c1 (configuration not stated) | -3 | 4
CCCCN(CC)c1ncnc2c1sc1nc(N3CCOCC3)c3c(c12)CC(C)(C)OC3 | 13 | 11
COc1cccc(CCNC(=O)C2CC(=O)N(N(C)c3ccccc3)C2)c1 (configuration not stated) | -7 | -16
CC(NC(=O)c1cc2n(n1)CCCN(C(C)C)C2)c1nccs1 (configuration not stated) | -1 | 12

Sorted by count of non-hydrogen atoms (high to low): some entries from above.
Structure | NPYLR7 ag | NPYLR7 ag max-min
Fc1ccc(Oc2cc(N3CCN(Cc4ccc5c(c4)OCO5)CC3)ncn2)c(Cl)c1 | 10 | 16
COc1cccc(OCC2c3ccsc3CCN2C(=O)CN(C(C)=O)C(C)C)c1 (configuration not stated) | -19 | -17
CC(Oc1cccc(-n2ccnc2-c2ccccn2)c1)C(=O)O (configuration not stated) | -2 | -6

The results go on:
Structure | NPYLR7 ag | NPYLR7 ag max-min
Cn1cnnc1-c1ccc(N)cc1 | -11 | -15
OC12CC3CC(C1)CC(NCc1cn[nH]c1-c1ccc(F)cc1)(C3)C2 | 6 | -1
c1ccc(N2CCCN(Cc3ccncc3)CC2)cc1 | 2 | 1
COc1ccc(C)c2sc(N(CCCN(C)C)C(=O)c3ccc(C#N)cc3)nc12 | 1 | -3
CCOc1ccc(-c2cc(C)n3nc(C(=O)Nc4ccccc4C(=O)OC)cc3n2)cc1 | -2 | -7
Cc1ccc(CN(Cc2ccc(F)cc2)CC(O)COCc2ccccc2)o1 (configuration not stated) | 23 | 20
O=C(Cc1ccccc1)NCc1nnc(SCC(=O)Nc2nccs2)n1-c1ccc(Cl)c(Cl)c1 | -5 | -1
O=C(Nc1ccc(-c2cccc(-c3ccc4c(c3)OCCO4)n2)cc1)C1=COc2ccc(Cl)cc2C1 | 14 | 17
COCCCN1C(=O)N(Cc2ccc3ccccc3c2)C(=O)C12CCN(Cc1ccc(C)s1)CC2 | 7 | -7
Nc1cccc(C(=O)NOCc2ccccc2)c1Nc1ccccc1 | 0 | -1
CC(Cc1ccccc1Cl)NC(=O)C1CC2CCCC(C1)C2=O (configuration not stated) | -25 | -24
COc1cn(C)c(C(=O)Nc2ccc(F)c(F)c2)cc1=O | 3 | 0
